HSV replic up – enhancers of HSV replication in host cells, fold increase, host cell viability; maximum fold increase; AID 1956, 2009; 220,000 tested, 0.005% active; HSV replication augmentation in cells;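 active = peak rise of 1.5-fold or more in the series; tested in PC3 cells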;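 also: first round at 10 µM; read as green reporter fluorescence; hits show the peak of a series up to 25 µM; 1 = signal of infected wells without compound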
GALR2 agonist – GALR2 receptor agonists, primary screen, cell-based | Galanin receptor type 2 (Homo sapiens), O43603 | GALR2-expressing cells, agonist activation read-out | activation, %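 (tested at 5 µM)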 | 140,000 tested, 0.48% active | AID 803, 2007;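 active = above mean plus 3 SD of all compounds, about 5% in these data, not always enough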;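 also: 0% = vehicle buffer wells and 100% = reference agonist at full effect; tested in CHO reporter cells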
INS promoter inh – inhibitors of insulin promoter-driven GFP, primary screen, imaging, TRM-6 cells (human fetal islet line), eGFP reporter, cell count. 130,000 tested, 0.9% active. inhibition, % at 2 µM. reporter expression induced with tamoxifen. AID 1273, 2008;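 active = inhibition above the mean plus 3 SD, with well images judged a real hit on visual review, cut at about 60% in these data, passing the limit was not always enough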
RGS16-Gao – modulators of RGS16 binding to Galphao, primary screen, biochemical, human proteins, multiplexed bead flow cytometry. Regulator of G-protein signaling 16 (Homo sapiens) + Guanine nucleotide-binding protein …. bead-based flow cytometry RGS16-Galphao binding, fluorescence; actives lie on both sides. binding response (% of control), % at 10 µM. 220,000 tested, 0.38% active;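 active = below 25% or above 175%, edge rows of some plates excepted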;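 also: Galphao activated by GDP with aluminum fluoride before binding; 100% = wells without compound and 0% = beads without RGS; some results beyond the cut were filed as inactive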
PKD1 inh – inhibitors of human PKD1 kinase, biochemical, fluorescence polarization | 200,000 tested, 0.056% active | Serine/threonine-protein kinase D1 (Homo sapiens), Q15139 | inhibition, %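 (about 10 µM by stock and volumes)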 | PKD1 kinase fluorescence polarization assay;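 active = inhibition of 50% or more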;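 also: controls were vehicle for no effect and a reference inhibitor for full effect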
Target sequence (Q15139 whole entry, looked up): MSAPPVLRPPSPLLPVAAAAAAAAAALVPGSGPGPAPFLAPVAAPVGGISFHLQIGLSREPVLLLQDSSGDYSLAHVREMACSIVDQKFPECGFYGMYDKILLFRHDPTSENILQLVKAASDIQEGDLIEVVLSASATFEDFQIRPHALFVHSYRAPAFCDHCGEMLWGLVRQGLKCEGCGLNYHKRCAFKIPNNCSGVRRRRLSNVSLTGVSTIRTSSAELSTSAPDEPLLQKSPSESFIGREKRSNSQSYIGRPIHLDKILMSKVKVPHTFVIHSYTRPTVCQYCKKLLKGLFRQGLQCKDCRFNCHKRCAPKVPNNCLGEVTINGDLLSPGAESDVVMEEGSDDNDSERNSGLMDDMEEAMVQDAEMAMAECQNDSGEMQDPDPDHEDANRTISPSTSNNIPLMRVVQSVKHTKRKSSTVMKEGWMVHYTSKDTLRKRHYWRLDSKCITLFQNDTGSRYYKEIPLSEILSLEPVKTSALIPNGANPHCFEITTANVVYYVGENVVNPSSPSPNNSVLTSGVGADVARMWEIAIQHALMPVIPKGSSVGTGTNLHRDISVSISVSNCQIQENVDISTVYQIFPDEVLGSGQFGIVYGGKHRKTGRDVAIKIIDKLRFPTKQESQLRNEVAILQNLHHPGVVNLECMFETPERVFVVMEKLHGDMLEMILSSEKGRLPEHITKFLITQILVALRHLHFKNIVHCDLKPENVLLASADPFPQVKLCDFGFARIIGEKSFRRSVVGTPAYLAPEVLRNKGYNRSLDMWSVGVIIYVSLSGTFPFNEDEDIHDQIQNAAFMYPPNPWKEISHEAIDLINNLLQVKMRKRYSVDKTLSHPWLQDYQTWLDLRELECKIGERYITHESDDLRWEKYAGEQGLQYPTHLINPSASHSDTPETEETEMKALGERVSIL
INS promoter inh cell count – second read-out of INS promoter inh, no call of its own (marks repeat the call); normalized cell count, %; measured here: cell count, toxicity; reference of the scale not given here;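 cells exposed to compound for 48 h; stained nuclei by imaging scaled within each plate; lower means fewer cells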
HSV replic up primary fold – second read-out of HSV replic up, no call of its own (marks repeat the call); fold increase; compound at 10 µM; measured here: primary screen fold increase 10 uM; tested in PC3 cells;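 GFP signal in the first replicate; 1 = infected wells without compound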
* = called active by the depositor; i = inactive; x = no result given.

structure,HSV replic up,HSV replic up primary fold,GALR2 agonist,INS promoter inh,INS promoter inh cell count,RGS16-Gao,PKD1 inh
CN(C(=O)C1CCOC1)c1nnc(-c2cnccn2)s1 (stereo not drawn),i,1.1,-0.1,-14,68,98,1
CCOc1ccc(Cc2c(Cl)nc(SC)nc2OC)cc1,i,0.87,-0.8,-47,109,105,-7
O=C(NCC1CCN(S(=O)(=O)c2ccccc2)CC1)Nc1ccc(F)cc1F,i,1.1,x,x,x,103,x
CC1(C)CC(=O)CC(C2(O)C(=O)N(Cc3ccccc3)c3ccccc32)O1 (stereo not drawn),i,0.92,-1.5,x,x,102,9
COc1ccc(-c2c(C)n([O-])c(C)c(-c3ccccc3)[n+]2=O)cc1OC,i,1,0.3,-16,98,98,-5
COc1ccccc1NS(=O)(=O)CC12CCC(CC1=O)C2(C)C (stereo not drawn),i,0.85,-2.0,x,x,99,-4
O=C(CN1CCN(Cc2ccc(Cl)cc2)C1=O)NCc1cccs1,i,1,x,-7,128,102,-2
CCOC(=O)N1CCN(C(=S)Nc2cccc(C)c2)CC1,i,1.1,-1.6,41,72,103,-4
CC(=O)Nc1csc2ccccc12,i,0.94,x,x,x,115,2
O=C(NCc1ccc(Cl)cc1Cl)c1ccccn1,i,1,-1.4,x,x,125,-6
Cc1ccc(OC(C)C)c(CN(CCO)CCO)c1,i,1,-1.4,11,105,95,1
CCc1ccc(OCC(=O)NC(NC(=S)Nc2ccccc2)C(Cl)(Cl)Cl)cc1 (stereo not drawn),i,0.68,0.4,x,x,103,2
O=C(C1CCCN(Cc2ccccc2)C1)N1CCc2ccccc2C1 (stereo not drawn),i,0.91,-2.3,42,106,104,-1
COc1ccc(/C=N/NC(=O)CC(=O)NCc2cccnc2)cc1,i,0.93,-0.1,0,81,105,-13
O=C1c2ccccc2C(=O)N1CN(C(=O)COc1ccccc1)c1ccc(F)cc1,i,1,-0.5,x,x,95,-1
CC(C)CCSc1ncnc2c1oc1nc3c(cc12)COC(C)(C)C3,i,1,-1.4,-85,77,108,-3
CCCCOC1CC(c2ccc(OCc3ccc(OC)cc3)c(OC)c2)N(C)O1 (stereo not drawn),i,0.98,x,45,34,119,-5
COC(=O)c1ccc(-c2noc(CN(Cc3ccccn3)CC3CCCO3)n2)cc1 (stereo not drawn),i,0.83,x,x,x,118,-1
Cc1noc(C)c1COC(=O)c1cc(C)n(-c2ccccc2)c1C,i,0.94,-1.8,x,x,100,-10
COc1ccc(Br)cc1/C=N/Nc1cccc(C(=O)O)c1,i,1.1,-1.1,x,x,98,-12
O=[N+]([O-])C(/C=C(/Cl)[N+](=O)[O-])=C(N1CCCCC1)N1CCCCC1,i,1.1,x,x,x,80,x
O=C(Cc1cccs1)N1CCN(S(=O)(=O)c2ccccc2)CC1,i,1.1,-1.0,x,x,100,-2
COc1ccc(CC(=O)OCCN(C)C)cc1,i,0.91,-1.3,32,110,100,-1
Cc1ccc2c(n1)sc1c(-c3ccccc3)c(C#N)c(N)nc12,i,0.7,0.6,-48,138,105,-7
c1ccc(Cn2nnnc2CN2CCN(c3ncccn3)CC2)cc1,i,1,-2.5,-30,187,95,-6
COc1ccc(NC(=O)C2C3CCC(C3)C2C(=O)O)cc1OC (stereo not drawn),i,0.99,-2.3,-33,82,102,-7
OCC(O)CN1CCCC1 (stereo not drawn),i,1.2,x,x,x,96,x
CN(C)C(CNC(=O)c1cccc(C#N)c1)c1ccco1 (stereo not drawn),i,0.98,x,x,x,98,-3
COc1ccc(NC(=O)c2ccccc2NC(=O)C2CCCO2)cc1 (stereo not drawn),i,0.94,-2.1,-3,100,101,1
COCc1[nH]nc2c1C(c1cc(OC)c(O)c(OC)c1)C(C#N)=C(N)O2 (stereo not drawn),i,0.85,-0.5,x,x,106,0
CC1CCCC(NS(=O)(=O)c2ccc3c(c2)OCCO3)C1C (stereo not drawn),i,0.94,-1.8,-10,106,99,-13
COc1cc(CC(=O)Nc2cc(S(C)(=O)=O)ccc2Cl)cc(OC)c1OC,i,0.96,x,-42,176,114,-5
Cc1cc(-c2ccccc2)n(-c2ccc(C(=O)N3CCN(c4ncccn4)CC3)cc2)n1,i,0.96,0.9,20,125,102,-6
CN(Cc1ccccc1)CC(O)COc1ccc(CNCCCOc2cccnc2)cc1 (stereo not drawn),i,0.95,x,x,x,102,1
COC(=O)c1c(NC(=O)CN2C(=O)C(=O)N(CC(C)C)C2=O)sc2c1CCCCC2,i,0.99,0.3,x,x,102,-2
COc1ccc(CCN(C)C(=O)CSc2nc3ncc(Cl)cc3[nH]2)cc1OC,i,0.69,x,x,x,102,8
Fc1ccc(-c2nc3c(-c4ccc(F)cc4)cnn3cc2CCN2CCOCC2)cc1,i,0.95,x,x,x,95,-4
NC(=O)C1(N2CCCCC2)CCN(C(=O)CSc2nc(C(F)(F)F)cc(=O)[nH]2)CC1,i,0.95,-1.9,55,125,102,-1
NC(=O)C1CCN(C(=O)c2cccc(S(=O)(=O)N3CCc4ccccc4C3)c2)CC1,i,1,x,x,x,97,1
CN1C(=O)Cn2c1nc1ccccc12,i,1,-1.6,x,x,102,7
Cc1ccc(C(=O)Nc2ccccc2Oc2ccccc2)cc1[N+](=O)[O-],x,x,-2.0,-16,177,107,-3
COc1ccc(C2C(C#N)=C(N)Oc3cc(C)n(CCN4CCOCC4)c(=O)c32)cc1OC (stereo not drawn),i,1,-1.0,0,117,101,1
COc1ccc(C(=O)N2CCC(C(=O)Nc3ccc4c(c3)OCO4)CC2)cc1,i,0.95,0.0,-21,90,102,-2
Cc1cc(/C=C2\SC(=S)NC2=O)c(C)n1C,i,0.9,-2.6,-100,109,94,-4
CCCCOC(=O)Nc1cccc(C(C)=O)c1,i,0.98,-0.7,27,115,98,9
O=C(Cc1ccccc1)NNC(=S)Nc1ccc(Cl)cc1,i,1,-0.3,-31,68,73,10
Oc1c(Cl)cc(Cl)cc1C=Nc1cc(C(F)(F)F)ccc1N1CCc2ccccc2C1,i,0.99,x,x,x,101,x
Nc1c(C(=O)Nc2ccc(F)cc2)sc2nc(-c3ccco3)ccc12,i,1.3,-0.7,0,159,95,-12
COCCCNC(=S)NNC(=O)c1ccc2c(c1)OCO2,i,1.1,-2.8,-61,99,94,0
C=CCN(CC=C)C(=S)NC(=O)c1ccc(C)c(Br)c1,i,0.96,-1.2,48,104,101,-6

Next section.
structure,HSV replic up,HSV replic up primary fold,GALR2 agonist,INS promoter inh,INS promoter inh cell count,RGS16-Gao,PKD1 inh
COc1ccc(OC)c(-n2c(SCC(=O)Nc3cc(C)on3)nnc2-c2c[nH]c3ccccc23)c1,i,0.89,-3.9,x,x,96,-6
Cc1cccc(N2CCN(CC(O)COc3ccc(Cl)cc3)CC2)c1 (stereo not drawn),i,0.99,x,x,x,91,x
Cc1nnsc1SC(C)C(=O)O (stereo not drawn),i,0.92,-0.9,7,56,92,-11
c1cnc(-c2noc(CN3CCN(C4C5CC6CC(C5)CC4C6)CC3)n2)cn1 (stereo not drawn),i,0.98,x,x,x,106,-8
CS(=O)(=O)N(CC(=O)Nc1cccc(F)c1)Cc1ccccc1,i,1,-2.1,-73,78,96,1
COc1ccc(C(=O)c2c(NC(C)=O)sc3c2CCN(C(=O)OC(C)(C)C)C3)cc1,i,0.91,x,x,x,96,x
O=C(NC1CCCCC1)[C@H](O)[C@@H](O)C(=O)NC1CCCCC1,i,0.95,1.2,55,100,101,-4
C/C(=N\Nc1nc(-c2ccccc2O)nc2ccccc12)c1ccccc1,i,0.9,x,x,x,98,4
OCCC1CN(Cc2c(F)cccc2Cl)CCN1C1CCCCC1 (stereo not drawn),i,1,x,x,x,104,-2
O=C(Nc1cccc(Cn2cccn2)c1)c1cc2c(s1)CCCC2,i,1.1,-2.1,40,64,87,-2
COc1ccc(C(=O)c2ccc(Cl)cc2)cc1,i,1.1,0.4,9,104,102,-4
CCc1ccc(NC(=O)c2ccc3nc(N)sc3c2)cc1,i,0.92,-2.0,3,115,103,-6
CCc1cc2c(C)cc(C)cc2nc1SCC(=O)Nc1cc(C)on1,i,1.1,x,x,x,90,-10
S=c1[nH]nc(CSCCOc2ccc(Cl)cc2Cl)o1,i,1.1,x,x,x,101,x
CSc1nc(-c2ccccc2)cn1-c1ccc(NC(C)=O)cc1,i,1,x,55,104,110,-3
O=C(O)C1CCCN1S(=O)(=O)c1ccccc1 (stereo not drawn),i,0.63,-2.5,-12,113,94,-3
Cc1cc(NC(=O)CSc2nc3c(c(-c4cccnc4)c2C#N)CCC3)no1,i,0.87,1.3,-14,124,103,-4
O=[N+]([O-])c1ccc(N2CCCCC2)cc1,i,0.97,x,x,x,80,x
COc1ccc2c(c1)c1ncn(CCc3ccccc3)c(=O)c1n2C,i,0.83,-0.7,-220,24,101,0
COc1ccc(NC(=S)NCCN2CCC(C)CC2)cc1Cl,i,0.91,x,x,x,91,-5
COc1cc2c(cc1OC)CN(C(=O)c1ccc(OC)c([N+](=O)[O-])c1)CC2,i,0.93,x,x,x,107,x
OC(COCCOc1ccc(Br)cc1)CN1CCN(Cc2ccccc2)CC1 (stereo not drawn),i,0.82,-0.9,-38,78,27,-8
Cc1cc(-c2ccccc2)c2c3c(c(-c4ccccc4)n2n1)c(=O)n(C)c(=O)n3C,i,1.2,-2.8,-50,101,103,-17
O=C(CC12CC3CC(CC(C3)C1)C2)Nc1ccccc1N1CCOCC1,i,1,x,-19,105,102,-2
CN(C)S(=O)(=O)c1ccc(NC(=O)COC(=O)c2n[nH]c3ccccc23)cc1,i,0.96,-1.1,69,36,101,-16

In a second layout: 2 of the compounds above
Screens in order – HSV replic up	HSV replic up primary fold	GALR2 agonist	INS promoter inh	INS promoter inh cell count	RGS16-Gao	PKD1 inh
S=c1[nH]nc(CSCCOc2ccc(Cl)cc2Cl)o1
    i	1.1	x	x	x	101	x
CSc1nc(-c2ccccc2)cn1-c1ccc(NC(C)=O)cc1
    i	1	x	55	104	110	-3

Single records, as listed above. Screens in order: HSV replic up	HSV replic up primary fold	GALR2 agonist	INS promoter inh	INS promoter inh cell count	RGS16-Gao	PKD1 inh
OCCC1CN(Cc2c(F)cccc2Cl)CCN1C1CCCCC1 (stereo not drawn) is listed as i	1	x	x	x	104	-2
Cc1cc(-c2ccccc2)c2c3c(c(-c4ccccc4)n2n1)c(=O)n(C)c(=O)n3C is listed as i	1.2	-2.8	-50	101	103	-17

(list continues)
structure,HSV replic up,HSV replic up primary fold,GALR2 agonist,INS promoter inh,INS promoter inh cell count,RGS16-Gao,PKD1 inh
Cc1ccc(C)c(Cn2nnc3c(=O)[nH]c(C(=O)NCC4CCCO4)nc32)c1 (stereo not drawn),i,1.1,-0.1,25,164,107,-4
O=S(=O)(c1ccc2ccccc2c1)N1CCCOC1,i,0.91,0.1,-6,180,100,8
CCOc1ccc(CNc2ccc(S(N)(=O)=O)cc2)cc1,i,0.84,x,21,82,99,4
CCOc1ccc(Nc2ncnc3c2cnn3Cc2ccccc2)cc1,i,0.8,-1.3,-14,77,99,-10
COc1cc(C(=O)N(Cc2ccco2)Cc2cc3ccccc3[nH]c2=O)cc(OC)c1OC,i,0.72,-0.9,x,x,105,4
CN(C)CCNC(=O)c1ccc(CS(=O)(=O)c2c(Cl)cccc2Cl)o1,i,1.1,-4.1,x,x,113,-13
COc1ccc(CCNC(=O)c2c(-c3ccccc3)noc2C)cc1OC,i,0.86,-0.5,-129,73,105,1
Cc1ccccc1OC/C(O)=C(\C#N)c1nc2ccccc2[nH]1,i,1,-1.1,-25,44,96,-2
O=C(Nc1cc2c(oc1=O)CCCC2=O)c1cccc(Cl)c1,i,0.95,-2.3,7,89,90,-5
CCOC(=O)N1CCN(C(=O)C2CCCN(c3nc4ccc(OCC)cc4s3)C2)CC1 (stereo not drawn),i,0.88,-0.4,0,90,106,4
Cn1nc(CC(=O)Nc2ccc3c(c2)OCCO3)c2ccccc2c1=O,i,1.1,-0.8,x,x,98,0
CCOC(=O)c1ccccc1NC(=O)CSc1nc(N)cc(=O)[nH]1,i,1.1,x,x,x,105,x
CC(C)N(C(=O)Nc1ccc2nccnc2c1)C(C)C,x,x,-1.6,50,107,94,9

Source: PubChem
